Screening data as filed in PubChem.
NPYLR7 agonist: activates Aedes aegypti NPYLR7 receptor. activation, % at 10 µM. actives 0.15% (n = 270,000). HEK293T NPYLR7/Galpha15, GCaMP6s calcium fluorescence; in the data active = activation above about 40%;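 also: 0% = vehicle and 100% = reference agonist at the receptor; some compounds past the cut are filed as inactive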
NPYLR7 agonist max-min: also measured in NPYLR7 agonist; calls as there; activation, %; measured here: Max-Min RFU normalised activation; some inactives read as strong as hits;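 span of the calcium signal over five minutes; 0% = vehicle and 100% = native peptide agonist; compound fluorescence can raise it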
* hit, by the source's call; & = joins results of further samples.

1	CN1C(=O)Cc2cc(C(=O)CSc3nnc(C4CC4)o3)ccc21
2	CS(=O)(=O)N(CCN1C(=O)c2ccccc2C1=O)CCN1C(=O)c2ccccc2C1=O
3	CNc1nc2cnc(Nc3ccc(OC)cc3)cc2n1CCOC
4	NC(=O)CCn1c(SCC2CCCCO2)nnc1-c1ccco1 (stereo not given)
5	CSCc1ccc(C(=O)O)o1
6	O=C1OC(C(=O)NC(c2ccccc2)c2ccccn2)Cc2ccccc21 (stereo not given)

Assay by compound | 1 | 2 | 3 | 4 | 5 | 6
NPYLR7 agonist | 1 | -6 | 4 | -2 | 9 | 9
NPYLR7 agonist max-min | 0 | -4 | -5 | -1 | 12 | 4

7	COCC1CCCN(C(=O)C2CCN(c3nc(C)c4ccccc4n3)CC2)C1 (stereo not given)
8	CC(C)c1ccccc1N1C(=O)CSC1c1ccc(NC(=O)COCc2ccccc2)cc1 (stereo not given)
9	CCCn1c(C)cc(C(=O)CN2C(=O)NC(Cc3ccccc3)C2=O)c1C (stereo not given)
10	CCN(CC)C(CNc1nc(C)nc2c1cnn2C)c1ccco1 (stereo not given)
11	CCN(Cc1ccccc1)C(=O)c1ccc(-c2ccccc2)nc1N1CCOCC1
12	CN(CC1CCCO1)C(=O)c1coc(COc2ccc(F)cc2Cl)n1 (stereo not given)

Assay by compound | 7 | 8 | 9 | 10 | 11 | 12
NPYLR7 agonist | 17 | 6 | 18 | 9 | 13 | 3
NPYLR7 agonist max-min | 6 | 9 | 7 | 7 | 6 | -6

13	CC(=O)CN1N=C(C)C(C)n2c1nc1c2c(=O)n(Cc2cc(C)ccc2C)c(=O)n1C (stereo not given)
14	CCOC(=O)C(F)(F)C(F)(F)C(F)(F)C(=O)N1CCc2c([nH]c3ccc(OC)cc23)C1c1ccccc1OC (stereo not given)
15	C=Cc1ccc(Cn2c(C)c(C(=O)N(C)CCCC)sc2=O)cc1
16	CCOC(=O)C(c1n[nH]c(C2CC2)n1)C1CCCCC1 (stereo not given)
17	CCCCn1nc(C)c(CNC2CCc3ncnn3C2)c1Cl (stereo not given)
18	COCCN(Cc1nccn1Cc1ccc(Cl)c(Cl)c1)S(=O)(=O)c1ccc(C)cc1

Assay by compound | 13 | 14 | 15 | 16 | 17 | 18
NPYLR7 agonist | -9 | 36 | 11 | 0 | 9 | 2
NPYLR7 agonist max-min | -11 | 22 | 5 | -1 | 5 | 6

19	COc1ncccc1C(=O)NC1CC(=O)N(CCc2cccc(Cl)c2)C1 (stereo not given)
20	CNCC#CCOc1cc(C)ccc1C
21	Cc1c(C(C)NC(=O)C(C)Oc2ccccc2)cnn1C (stereo not given)
22	Cc1cnn(CCCNc2ccccc2S(=O)(=O)C(F)F)c1
23	O=C(N=C1c2ccccc2CN1c1ccc2c(c1)OCO2)c1ccco1
24	CC(C)CCNS(=O)(=O)c1ccc(NCc2cccnc2)nc1

Assay by compound | 19 | 20 | 21 | 22 | 23 | 24
NPYLR7 agonist | 2 | -8 | 15 | -3 | 9 | 1
NPYLR7 agonist max-min | -2 | -17 | 7 | -5 | 3 | 0

Structural class: the compounds so far containing an aryl methoxy group (3)
3	CNc1nc2cnc(Nc3ccc(OC)cc3)cc2n1CCOC
14	CCOC(=O)C(F)(F)C(F)(F)C(F)(F)C(=O)N1CCc2c([nH]c3ccc(OC)cc23)C1c1ccccc1OC (stereo not given)
19	COc1ncccc1C(=O)NC1CC(=O)N(CCc2cccc(Cl)c2)C1 (stereo not given)

Assay by compound | 3 | 14 | 19
NPYLR7 agonist | 4 | 36 | 2
NPYLR7 agonist max-min | -5 | 22 | -2

Continuation:
25	O=C(c1ccc(F)cc1)N(Cc1ccc2c(c1)OCO2)Cc1c(-c2ccccc2)noc1N1CCCC1
26	Cc1c(C(C)Nc2nncc(-c3cccc(F)c3)n2)cnn1C (stereo not given)
27	CN(Cc1cccc(O)c1)C(=O)CCNC(=O)c1ccc2ccccc2c1
28	COc1cc2c(cc1NC(=O)CSc1nnc(C3(c4ccc(Cl)cc4)CCC3)o1)oc1ccccc12
29	CNc1cc(C(=O)N(C)CC(=O)Nc2ccc(C)cn2)cc(Cl)n1
30	CC1(C(=O)NS(=O)(=O)c2ccc(Br)cc2)CCN1C(=O)Cc1cccs1 (stereo not given)

Assay by compound | 25 | 26 | 27 | 28 | 29 | 30
NPYLR7 agonist | 9 | 7 | 1 | -5 | 9 | -1
NPYLR7 agonist max-min | 10 | 8 | -2 | -6 | 6 | -2

31	O=C(c1cccc(F)c1)N(Cc1cccc(Cl)c1)CC1CC(c2ccccc2F)=NO1 (stereo not given)
32	Cc1ccc(C(O)c2nnc(Nc3cccc(C(C)C)c3)s2)cc1 (stereo not given)
33	C=CCN1C(=O)c2ccc(C(=O)Nc3ccc(F)cc3Cl)cc2C1=O
34	COC(=O)C1CCN(C(c2ccc(Br)cc2)C2Sc3nc(C)nn3C2=O)CC1 (stereo not given)
35	CCCCN(C)c1c(C)nc2ccc(C(=O)N3CCCC(C(N)=O)C3)cn12 (stereo not given)
36	Cc1ccc(OCc2cc(C(=O)N(C)Cc3nc4ccccc4[nH]3)no2)cn1

Assay by compound | 31 | 32 | 33 | 34 | 35 | 36
NPYLR7 agonist | 21 | 9 | 13 | 4 | -5 | -3
NPYLR7 agonist max-min | 34 | 7 | 6 | 2 | -7 | -6

Filtered by structure: those above with bromine.
30	CC1(C(=O)NS(=O)(=O)c2ccc(Br)cc2)CCN1C(=O)Cc1cccs1 (stereo not given)
34	COC(=O)C1CCN(C(c2ccc(Br)cc2)C2Sc3nc(C)nn3C2=O)CC1 (stereo not given)

Assay by compound | 30 | 34
NPYLR7 agonist | -1 | 4
NPYLR7 agonist max-min | -2 | 2

Additional records follow:
37	Cc1nn(C)c(C)c1NC(=O)c1cccc(CN2CCc3ccccc3C2)c1
38	COCCNC(=O)C1(C)CCCN(Cc2ccc3ccccc3c2Br)C1 (stereo not given)
39	O=C(Nc1ccc2c(c1)OCO2)c1cnn2c(C(F)(F)F)cc(-c3ccco3)nc12
40	CCC(=O)N1CCC1(C)C(=O)Nc1cccc(OC)c1OC (stereo not given)
41	O=C(CN1CCSC1=O)Nc1ccc(OCC(F)(F)F)cc1
42	C=CCNC(=O)c1nnn(-c2ccc(OCC)cc2)c1COC

Assay by compound | 37 | 38 | 39 | 40 | 41 | 42
NPYLR7 agonist | 2 | 8 | -8 | -3 | -4 | 3
NPYLR7 agonist max-min | -1 | 2 | -11 | -4 | -2 | 4

43	COc1cc(C)ccc1OS(=O)(=O)c1cn(C)c(=O)n(C)c1=O
44	COc1cccc(CC2(CO)CCCN(Cc3c(OC)cccc3OC)C2)c1 (stereo not given)
45	CC(C)CN(Cn1nc(-c2cccc(Cl)c2)oc1=S)C1CCS(=O)(=O)C1 (stereo not given)
46	Clc1ccccc1-c1noc(CSc2ncnc3sccc23)n1
47	O=C(NC1CCCCC1)NC1CCCCC1
48	CCOC(=O)N1CCN(C(=O)CC2(c3ccccc3OC)CC(=O)N(C)C2=O)CC1 (stereo not given)

Assay by compound | 43 | 44 | 45 | 46 | 47 | 48
NPYLR7 agonist | -1 | 6 | 9 | 10 | 1&-10 | 17
NPYLR7 agonist max-min | -2 | 8 | 13 | 6 | 9&-13 | 12

49	COC(=O)c1ccc(OC(=O)C(=Cc2cccs2)n2nnnc2-c2ccccc2)cc1
50	CC1CCCCN1Cc1nc2c(c(=O)n(C)c(=O)n2C)n1Cc1cccc2ccccc12 (stereo not given)
51	Cn1nc([N+](=O)[O-])c(C(C#N)c2nc3ccccc3o2)c(Cl)c1=O (stereo not given)
52	CCOC(=O)c1cc(-c2cccc(NC(=O)c3cccc(C#N)c3)c2)n(-c2cccc(C)c2)n1
53	O=C(NC1CC1)c1cc2n(n1)CCN(C(=O)CC1NC(=O)c3ccccc31)C2 (stereo not given)
54	CC(C)n1c(Cl)nc2c1c(=O)n(C)c(=O)n2C

Assay by compound | 49 | 50 | 51 | 52 | 53 | 54
NPYLR7 agonist | 2 | 8 | -3 | 3 | 7 | 3
NPYLR7 agonist max-min | 1 | 5 | -3 | 10 | 3 | 0

55	Cn1nc(C2CCN(C(=O)C3COC(=O)N3)CC2)n(-c2ccccc2)c1=O (stereo not given)
56	CC(Oc1ccc2c(c1)OCO2)c1nn2c(C3CC3)nnc2s1 (stereo not given)
57	Cc1ccc(NC(=O)N(CCC#N)C(C)C2CC2)cc1 (stereo not given)
58	CC(Oc1ccc2c(c1)OCO2)C(=O)NCCCn1nc(-c2ccccc2)ccc1=O (stereo not given)
59	Cc1[nH]ccc2c1[nH]c1cc(=O)ccc12
60	O=C(NCc1ccc2c(c1)OCO2)C1=Cc2cc(Cl)ccc2OC1

Assay by compound | 55 | 56 | 57 | 58 | 59 | 60
NPYLR7 agonist | 18 | 1 | 4 | -4 | -4 | 1
NPYLR7 agonist max-min | 5 | -9 | -6 | -6 | -9 | -1

61	COC(=O)NCC(=O)N=c1sccn1Cc1cccc2ccccc12
62	Cc1nc2ccc(Cl)cn2c(=O)c1NC(=O)Nc1cc(Cl)cc(Cl)c1
63	NC(=O)c1cnc2n1CCN(C(=O)c1ccc(-n3ccnc3)cc1)C2
64	CC(C)c1ccc(-c2nc(S(C)(=O)=O)nc3nn(Cc4ccccc4)c(N)c23)cc1
65	O=C(C1CC1)N1CCC(N2CCCC(C(=O)N3CCc4sccc4C3)C2)CC1 (stereo not given)
66	CC(C)Cn1c(N)cc(=O)n(C)c1=O

Assay by compound | 61 | 62 | 63 | 64 | 65 | 66
NPYLR7 agonist | 0 | -4 | 11 | 22 | 3 | -7
NPYLR7 agonist max-min | -2 | -3 | 8 | 10 | 1 | -14

67	CCn1cc(-c2c(-c3ccccc3)ncn2Cc2ccc3nonc3c2)c(C)n1
68	CCOc1ccc(/C=C/C(=O)NCc2ccc(OC)nc2)cc1
69	CCc1sc(C(=O)OC(C)C(=O)Nc2cc(C)no2)cc1C (stereo not given)
70	CCOc1ccc(C)cc1S(=O)(=O)Nc1ccc(Cl)cc1
71	CN1CCc2c(sc(NC(=O)C3COc4ccccc4O3)c2-c2nc3ccccc3s2)C1 (stereo not given)
72	O=C(CCl)N1N=C(c2ccc(Cl)cc2)CC1c1ccco1 (stereo not given)

Assay by compound | 67 | 68 | 69 | 70 | 71 | 72
NPYLR7 agonist | -4 | 4 | 15 | 1 | 12 | -5
NPYLR7 agonist max-min | -3 | 2 | 12 | -3 | 11 | -8

73	O=C(NCCNC(=O)C1CCN(C(=O)COc2ccc(Cl)cc2)CC1)c1ccccc1
74	CCOc1cc(/C=C2\SC(=S)N(C(Cc3ccccc3)C(=O)O)C2=O)ccc1O (stereo not given)
75	CCc1c(C(=O)NCc2ccccn2)c(C)nn1-c1ccccc1
76	CC(C)(C)c1ccc(-c2ccnc3nc(N4CCN(C(=O)COc5ccc(Cl)cc5)CC4)nn23)cc1
77	O=C(NCC1CCCN(Cc2ccsc2)C1)c1ccco1 (stereo not given)
78	CCc1cc(N2CCN(c3ccc(OC)cc3)CC2)nc(SCc2ccc(C(=O)NCCN3CCOCC3)o2)n1

Assay by compound | 73 | 74 | 75 | 76 | 77 | 78
NPYLR7 agonist | 13 | 10 | -3 | 6 | -6&11 | 6
NPYLR7 agonist max-min | 26 | 10 | 5 | -2 | -4&6 | 17

79	CC(C)CNC(=O)C1(C)CCCN1C(=O)CSc1ccccc1 (stereo not given)
80	C=CCN1CC(c2nc3ccccc3n2C(C)c2ccccc2)CC1=O (stereo not given)
81	Cc1ccc(C)c(-n2cc(CN(C)Cc3ccon3)c(-c3ccccc3)n2)c1
82	CCN1CCN(c2c(CN(C(=O)c3ccc4c(c3)OCO4)C(C)C)c(C)nn2-c2cccc(F)c2)CC1
83	C=CCCC(=O)N1CCc2ccc(NC(=O)c3ccc(C(F)(F)F)cc3)cc2C1
84	COc1ccc(-c2cc(C(F)(F)F)n3ncc(C(=O)Nc4cccc(C(F)(F)F)c4)c3n2)cc1OC

Assay by compound | 79 | 80 | 81 | 82 | 83 | 84
NPYLR7 agonist | 3 | 1 | 0 | -3 | 5 | 11
NPYLR7 agonist max-min | -1 | 10 | -3 | -4 | 1 | 18

85	CCN1CCN(C(=O)CCC2CCN(C(=O)/C=C/c3ccccn3)CC2)CC1
86	CN(C)Cc1nnc(C(=O)N2CCC(N(C)C)C2)o1 (stereo not given)
87	Cc1cc(=O)n2nc(N3CCC(C(=O)NC4CC4)CC3)sc2n1
88	COc1cc(C2NN(C)C3C(=O)NC(=O)C23)ccc1O (stereo not given)
89	CCNC(=O)NC(=O)COC(=O)c1cc(C)oc1C
90	CS(=O)(=O)c1cccc(C(=O)N2CCN(S(=O)(=O)c3ccccc3)CC2)c1

Assay by compound | 85 | 86 | 87 | 88 | 89 | 90
NPYLR7 agonist | 0 | 24 | 4 | 20 | -1 | 17
NPYLR7 agonist max-min | 0 | 19 | 4 | 10 | -1 | 11

91	Cc1c(N)cccc1-c1nc2cc(Cl)ccc2o1
92	CCN(CC)CCN(C(=O)C1=COCCO1)c1nc2c(Cl)cccc2s1
93	COc1ccc(CN(Cc2ccc(F)cc2)C(=O)c2cccc(F)c2)cc1OS(=O)(=O)c1ccc(F)cc1
94	O=C(c1ccc(Cl)c(S(=O)(=O)N2CCCCCC2)c1)N1CCCC1c1nc2ccccc2[nH]1 (stereo not given)
95	Cc1ccc2oc3c(c(=O)c2c1)C(c1ccccc1)N(c1nccs1)C3=O (stereo not given)
96	Cn1nnc2c(SCc3ccc(C(F)(F)F)cc3)ncnc21

Assay by compound | 91 | 92 | 93 | 94 | 95 | 96
NPYLR7 agonist | -4 | -9 | 2 | -9 | 6 | -1
NPYLR7 agonist max-min | -8 | -12 | 9 | -12 | 3 | 14

97	CCOC(=O)C1=C(C)NC(=O)NC1c1ccc(-c2ccc(Cl)cc2Cl)o1 (stereo not given)
98	COCc1cc(C)nc(OCC(=O)N/N=C\c2ccc(-c3ccc(C(=O)O)cc3)o2)c1C#N
99	Cc1cc(C=NNC(C)(C)C)c(C)n1-c1ccc(I)cc1
100	O=C(NCCCl)N1CCn2cccc2C1c1ccc(F)cc1 (stereo not given)
101	CC(C)N(Cc1ccccc1)C(=O)c1cccc(S(C)(=O)=O)c1

Assay by compound | 97 | 98 | 99 | 100 | 101
NPYLR7 agonist | -6 | -11 | 2 | 14 | 4
NPYLR7 agonist max-min | -8 | -13 | 0 | 11 | 5

A portion of the library; rates above refer to the full screens.
